GCN5L2 inh – blocks human GCN5L2 histone acetyltransferase; Potency, µM (series often up to 58.9 µM), inactives show at the top dose activity change, negative = inhibition, usual class: inhibitors; GCN5L2 HAT assay, ThioGlo1 CoA-SH fluorescence; 390,000 compounds, 0.21% hits
Target sequence (Q92830 whole entry, looked up): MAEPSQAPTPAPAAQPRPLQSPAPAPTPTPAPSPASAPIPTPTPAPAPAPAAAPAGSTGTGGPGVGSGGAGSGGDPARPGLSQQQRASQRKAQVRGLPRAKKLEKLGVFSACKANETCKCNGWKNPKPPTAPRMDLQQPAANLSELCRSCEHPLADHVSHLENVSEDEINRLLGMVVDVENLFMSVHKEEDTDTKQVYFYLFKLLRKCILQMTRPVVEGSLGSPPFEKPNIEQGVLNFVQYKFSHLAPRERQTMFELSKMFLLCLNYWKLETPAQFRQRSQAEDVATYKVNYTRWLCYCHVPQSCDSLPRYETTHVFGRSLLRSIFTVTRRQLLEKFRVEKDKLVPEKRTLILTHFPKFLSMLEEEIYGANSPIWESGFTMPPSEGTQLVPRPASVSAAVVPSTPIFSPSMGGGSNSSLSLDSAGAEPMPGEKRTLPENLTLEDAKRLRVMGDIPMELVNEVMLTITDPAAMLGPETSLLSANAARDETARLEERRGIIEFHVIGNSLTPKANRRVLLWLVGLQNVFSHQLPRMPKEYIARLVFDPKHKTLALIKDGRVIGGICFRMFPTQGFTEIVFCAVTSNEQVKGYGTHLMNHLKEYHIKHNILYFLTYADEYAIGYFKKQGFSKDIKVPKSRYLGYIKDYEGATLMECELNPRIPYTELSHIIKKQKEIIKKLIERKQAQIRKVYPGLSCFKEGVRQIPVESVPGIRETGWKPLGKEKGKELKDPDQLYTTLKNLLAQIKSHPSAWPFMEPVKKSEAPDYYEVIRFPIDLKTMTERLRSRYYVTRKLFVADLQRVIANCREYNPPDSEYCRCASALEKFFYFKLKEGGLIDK
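Fluorescence readout, Ex340nm/Em540nm: ThioGlo1 (50uM final) reacts with free CoA thiol released as 20nM GCN5L2 acetylates H3(1-25) peptide (75uM) using acetyl-CoA (70uM). Compound and enzyme sat 15 min beforehand; 20 min room-temperature reaction.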
TDP1 cell CPT – growth inhibition of DT40 Tdp1-/-;hTDP1 cells with camptothecin (screen for TDP1 inhibitors) | chicken DT40 Tdp1-/-;hTDP1 cells + 20 nM CPT, ATP luminescence, 48 h | 420,000 compounds, 12% hits | AID 686979 | Potency, µM (top dose mostly 46.2 µM), inactives show top-dose activity change, negative = growth inhibition, usual class: inhibitors; note: nearly all actives have a fitted effect of over 55% in size
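Chicken DT40 Tdp1-/- cells complemented with human TDP1, 400 cells/well, exposed to compounds plus 20 nM camptothecin for at least 48 h at 37 C; viability read as ATP content by CellTiter-Glo luminescence.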
Numbers without * were called inactive; u = inconclusive; x = not tested or not shown. Calls come from the whole dose curve; as a rule, active = well fitted curve in the direction sought with a large enough effect; inconclusive = small, poorly fitted or top-dose-only effect, or another doubt; inactive = no such curve, though single readings can be large; an effect the other way counts as inactive or inconclusive. % is set by controls: 0 for no effect and ±100 for the full control effect; potency is the fitted concentration of half-maximal effect.

Compound | GCN5L2 inh | TDP1 cell CPT
COc1ccc(NC(=O)C(c2ccc(OC)cc2)N(C)C(=O)c2cnccn2)cc1 (stereo unspecified) | -6% | u
Cc1ccc(N=C2S/C(=C/c3cccc(OCC(=O)O)c3)C(=O)N2C)cc1C | -4% | -2%
CCn1cc([N+](=O)[O-])c(C(=O)Nc2ccc(Cn3nc(C)cc3C)cc2)n1 | -6% | 1%
Cc1nc(-c2ccccc2)sc1C(=O)CSc1ccccc1 | 4% | 9%
COc1ccc(CNC(=O)CN(Cc2ccc(OC)cc2)C(=O)CCC(=O)Nc2ccccn2)cc1 | -3% | -16%
COc1cc(O)c(C(CCN2CCCC2)c2ccc(N(C)C)cc2)c(OC)c1 (stereo unspecified) | -6% | 15µM*
N#Cc1ccccc1OCC(=O)NC(=O)NCc1ccccc1 | -9% | -5%
COc1ccc(Nc2nc3ccccc3s2)cc1 | -6% | -8%
O=C(COC(=O)c1ccccc1OCc1ccccc1Cl)NC1CC1 | -1% | -15%
Cc1c(C(=O)NCCc2ccccc2)oc2ccccc12 | -3% | -25%
CCCCNc1nc2c(c(=O)n(Cc3ccc(Cl)cc3)c(=O)n2C)n1C | -10% | 21µM*
COc1cccc(N2C(=O)CC(c3c[nH]c4ccccc34)C2=O)c1 (stereo unspecified) | -10% | -8%
CSCC[C@H](N)C(=O)N1CCC(C(=O)N[C@@H](Cc2c[nH]c3ccccc23)C(=O)O)CC1 | 0% | -19%
Cc1ccc(N2CC(C(=O)NC(C)CCc3ccccc3)CC2=O)cc1 (stereo unspecified) | -26% | -9%
COc1ccc(N2C(=O)CC(NCc3ccncc3)C2=O)cc1 (stereo unspecified) | -1% | -22%
Cc1cccc(NC(=O)CSCC(=O)N2CCCc3ccccc32)c1 | -13% | 8%
Cc1cc(N2CCN(C3CCCCC3)CC2)nc2cccc(O)c12 | -1% | -4%
NCCCNc1ccc([N+](=O)[O-])cc1C(F)(F)F | u | -6%
CN1CCN(S(=O)(=O)c2ccc(NC(=O)COc3ccccc3Cl)cc2)CC1 | 2% | -4%
CCc1nnc(NC(=O)CN2C(=O)NC3(CCCC3)C2=O)s1 | 2% | -15%
C[C@H](CO)N1C[C@H](C)[C@@H](CN(C)C(=O)Nc2ccc3c(c2)OCO3)Oc2ccc(NC(=O)NC3CCCCC3)cc2C1=O | 2% | -16%
NS(=O)(=O)c1ccc(CNC(=O)CNC(=O)c2ccc(Br)o2)cc1 | -2% | 1%
COc1ccc(NC(=O)c2ccc3[nH]c(C)c(C)c3c2)cc1 | 9% | u
CCOC(=O)c1ccc(NC(=O)C(Cc2ccccc2)N2Cc3ccccc3C2=O)cc1 (stereo unspecified) | -11% | u
Cc1ccc(-c2nonc2NC(=O)c2ccco2)cc1C | 0% | u
Cc1cc(OCC(=O)NC(Cc2ccc(Cl)cc2)C(=O)O)c2c(C)c(C)c(=O)oc2c1 (stereo unspecified) | -16% | u
COc1cc2cc(CCO)oc(=O)c2cc1OC | 3% | -1%
Cn1cc([N+](=O)[O-])c(C(=O)N/N=C/c2cc3c(cc2Br)OCO3)n1 | u | -3%
CCOC(=O)c1cc(NC(=O)Nc2ccccc2OC)c(C)nc1C | -3% | -12%
COc1cccc(NC(=O)CN(C)C(=O)c2cc(CN3C(=O)c4ccccc4C3=O)ccc2OC)c1 | x | -26%
S=C(Cc1ccc(Cl)cc1)N1CCOCC1 | -5% | -5%
CN1CCN(S(=O)(=O)c2ccc(SCCOc3ccccc3)nc2)CC1 | 2% | u
CCCOC(=O)c1ccc(NC(=O)CN(C)Cc2cccs2)cc1 | -2% | -25%
N#Cc1sc2nc3c(c(-c4cccnc4)c2c1N)CCC3 | -6% | -21%
O=C(O)C1CC(=O)N(Cc2ccccc2)C1 (stereo unspecified) | -1% | 1%
Cc1ccc(NC(=S)NC2CCN(Cc3ccccc3)CC2)cc1 | -6% | u
COc1cccc(NC(=O)c2c(C(=O)Nc3ccccc3)sc3nc(C)cc(=O)n23)c1 | -1% | -21%
O=c1[nH]cnc2sc3c(c12)CCC3 | -1% | -13%
CC(=O)Nc1ccn(Cc2c(F)cccc2Cl)n1 | -25% | -1%
O=C(Nc1cccnc1)c1cc(F)cc(F)c1 | -1% | -4%
Cn1c2c(c(=O)n(C)c1=O)C(CC(=O)Nc1ccccc1F)C(=O)N2 (stereo unspecified) | -6% | 7%
C=CCn1cc(C(=O)OCC)c(=O)c2ccc(F)cc21 | -10% | -2%
O=P(CCC(F)(F)F)(CCC(F)(F)F)CCC(F)(F)F | 1% | -17%
Cc1ccc(-n2ncc3c(N(CCO)Cc4ccccc4)ncnc32)cc1 | -4% | 12µM*
CCc1ccc(OCCCC(=O)Nc2nnc(C3CCCO3)s2)cc1 (stereo unspecified) | -2% | 4%
O=C(COc1ccccc1Cl)N1CCN(C(=O)c2ccco2)CC1 | -11% | 13%
COc1ccc(-c2nc(C(N)=O)c3[nH]c(=O)n(-c4cccc(Cl)c4)c3n2)cc1OC | -4% | u
O=S(=O)(CCNCc1cccs1)c1ccc(Cl)cc1 | -1% | -9%
CC(C)[C@H](NC(=O)c1ccccc1)C(=O)OCC(=O)Nc1ccc(Cl)cc1C(F)(F)F | 16% | 3%
CCCC1Cc2c(sc3ncnc(N)c23)CO1 (stereo unspecified) | -9% | -19%
CC(C)(C)C1CCc2c(sc(NC(=O)c3cc(C4CC4)on3)c2C#N)C1 (stereo unspecified) | -23% | u
Cc1cc(N)nc2nc(C(F)(F)F)nn12 | -5% | 0%
CCOC(=O)CSc1ncc(-c2ccccc2)nn1 | -3% | 1%
COc1ccc(-n2nnc3c(=O)n(CC(=O)N4CCC(Cc5ccccc5)CC4)cnc32)cc1 | -1% | u
CCC(=O)n1nc(-c2ccccc2)nc1N | -5% | -18%
COc1ccc(CCC(=O)NCCS(=O)(=O)N2CCN(c3ccccc3OC)CC2)cc1 | -2% | 21µM*
COc1ccc(N=Cc2cc(Cl)ccc2O)cc1Cl | -9% | 10%
COC(=O)CCN(C1CCCCC1)S(=O)(=O)c1ccc(S(=O)(=O)N2CCCCC2)cc1 | 0% | 29µM*
Cc1onc(-c2ccccc2Cl)c1C(=O)NNC(=O)c1ccc(F)cc1 | -3% | 3%
COc1ccc(NC(=O)C2CCN(S(=O)(=O)c3ccc4c(c3)CC(C)N4C(C)=O)CC2)cc1OC (stereo unspecified) | -3% | u

Whole records as entered above. Values in the order: GCN5L2 inh	TDP1 cell CPT
Shown for CC(C)(C)C1CCc2c(sc(NC(=O)c3cc(C4CC4)on3)c2C#N)C1 (stereo unspecified) = -23%	u
Shown for CC(C)[C@H](NC(=O)c1ccccc1)C(=O)OCC(=O)Nc1ccc(Cl)cc1C(F)(F)F = 16%	3%
Shown for COc1ccc(NC(=O)C2CCN(S(=O)(=O)c3ccc4c(c3)CC(C)N4C(C)=O)CC2)cc1OC (stereo unspecified) = -3%	u
Shown for COc1ccc(CCC(=O)NCCS(=O)(=O)N2CCN(c3ccccc3OC)CC2)cc1 = -2%	21µM*
Shown for Cc1cc(N)nc2nc(C(F)(F)F)nn12 = -5%	0%

The list goes on:
Compound | GCN5L2 inh | TDP1 cell CPT
COCCCNC(=O)C1CCC(=O)N(c2ccc3c(c2)OCO3)C1c1ccc(OC)cc1 (stereo unspecified) | -6% | 10%
Cc1nc2scc(C)n2c(=O)c1S(=O)(=O)Nc1cccc(C(F)(F)F)c1 | -5% | u
Cc1nc2ccccc2nc1OCc1ccc([N+](=O)[O-])cc1 | -22% | -18%
COc1ccc(N(CC(=O)Nc2ccccc2C(=O)NCC(C)C)S(C)(=O)=O)cc1 | -3% | -15%
O=C(NCc1ccco1)C(c1ccccc1)N(Cc1cccnc1)C(=O)Cn1nnc2ccccc21 (stereo unspecified) | 1% | -12%
CCCCOC(=O)C1=C(C)Nc2nnnn2C1c1ccccc1Cl (stereo unspecified) | -2% | u
CCOc1ccc(-n2c(=O)c3c(C)c(C)sc3n(CC(=O)Nc3ccc(CC)cc3)c2=O)cc1 | -3% | u
Cc1nc(Sc2nnnn2-c2ccccc2)c(C#N)c(C)c1C | 1% | -23%
CCCCn1nnnc1SCC(=O)N1CCOCC1 | -8% | -7%
O=C(CN1CCN(Cc2ccc(Cl)cc2)CC1)N/N=C/c1ccncc1 | -2% | -10%
Cc1cc(C)n2nc(S(=O)(=O)NCCc3ccccc3)nc2n1 | -2% | -1%
COc1ccc(-c2coc3c(CN4CCCCC4C)c(O)ccc3c2=O)cc1 (stereo unspecified) | -15% | 6.5µM*
O=C(C1CCC(CNc2c(N3CCCCC3)c(=O)c2=O)CC1)N1CCCCC1 (stereo unspecified) | -7% | -1%
CCC1CCCCN1C(=O)Cn1c(C(=O)OC)cc2sc(Cl)cc21 (stereo unspecified) | -4% | u
CS(=O)(=NS(=O)(=O)c1ccc(Cl)cc1)c1ccccc1 (stereo unspecified) | -28% | -10%
O=C(O)CNC(=O)C(Cc1ccccc1)NC(=O)OCc1ccccc1 (stereo unspecified) | -3% | 5%
COc1cc(CN2CCCC(C(=O)c3ccccc3SC)C2)cc(OC)c1 (stereo unspecified) | 0% | 15µM*
O=C1N=C(N2CCOCC2)S/C1=C\c1cccs1 | -5% | -29%
CCN(CC)C(=O)c1cccc(NC(=O)C2=COCCO2)c1 | -1% | 17%
CC(C)(C)OC(=O)N1Cc2ccccc2C[C@H]1C(=O)O | -2% | -1%
O=C(CCc1ccccc1)Nc1ccccc1C(F)(F)F | -7% | 5%
CCCCc1c(O)nc(SCCN(C)C)n(-c2ccccc2)c1=O | -19% | 1%
O=C1COc2ccc(C(=O)COC(=O)CNC(=O)c3ccco3)cc2N1 | -3% | -3%
O=C(c1ccc(S(=O)(=O)N2CCOCC2)cc1)N1CCCc2ccccc21 | 0% | -14%
CC(C)COc1cccc(C(=O)N(CC(=O)Nc2ccccc2C(F)(F)F)Cc2ccco2)c1 | -11% | u
CCOc1cc(N2CCOCC2)c(OCC)cc1NC(=O)COc1cccc(CC)c1 | -8% | 18µM*
CC1CN(C(=S)NC(=O)c2cccc([N+](=O)[O-])c2)CC(C)O1 (stereo unspecified) | -13% | u
COCCN(Cc1cc2c(C)cc(C)cc2nc1Cl)C(=O)c1ccccc1F | -5% | 10µM*
Cc1ccc2c(CN3C(=O)NC4(CCCCC4)C3=O)cc(=O)oc2c1C | 0% | -30%
Cc1csc(=O)n1CCC(=O)OCC(=O)NCc1ccc(F)cc1 | -4% | 3%
NNC(=O)c1cc(Cl)ccc1Cl | -4% | 0%
Cc1ccsc1/C=N\NC(=O)Cn1nnc2ccccc21 | 25% | u
CN(Cc1ccccc1)C(=O)c1ccccc1C(=O)O | 1% | 8%
CCOC(=O)C1C(=O)C=C(c2cccs2)CC1c1ccccc1 (stereo unspecified) | -1% | u
CCC(CO)NCc1ccc(Br)cc1 (stereo unspecified) | 0% | -27%
COc1ccc(N2C(=O)CC(Nc3ccc(C(=O)O)cc3)C2=O)cc1OC (stereo unspecified) | -11% | -2%

2 of these compounds, reformatted.
> Cc1ccc2c(CN3C(=O)NC4(CCCCC4)C3=O)cc(=O)oc2c1C
  GCN5L2 inh = 0%
  TDP1 cell CPT = -30%

> Cc1csc(=O)n1CCC(=O)OCC(=O)NCc1ccc(F)cc1
  GCN5L2 inh = -4%
  TDP1 cell CPT = 3%

Following part
Compound | GCN5L2 inh | TDP1 cell CPT
O=C(CN1C(=O)NC2(CCCCC2)C1=O)Nc1ccc2c(c1)CCC2 | -3% | -23%
CC(=O)c1ccc(NC(=O)c2ccc(S(=O)(=O)N3CCCC3)cc2)cc1 | 0% | u
CC1CCc2c(sc(N)c2C(=O)OC(C)C)C1 (stereo unspecified) | 2% | u
CCOC(=O)C1CCN(S(=O)(=O)c2cccc(-c3cn4cc(Cl)ccc4n3)c2)CC1 | -3% | -20%
Cn1nccc1C(=O)OCC(=O)Nc1ccccc1Cl | -5% | -3%
Nc1cc(N)nc(SCC(=O)NCc2ccco2)n1 | -2% | 3%
O=C1NC(c2ccc(Cl)cc2Cl)Oc2ccccc21 (stereo unspecified) | 0% | 18%
COc1ccc(C2=[N+]([O-])C(C)(C)N(O)C2(C)C)cc1 | -2% | 0%
CC(=O)NC1c2ccccc2C(=O)N1Cc1ccccc1 (stereo unspecified) | -3% | 1%
Cc1cc(C)cc(NS(=O)(=O)c2ccc3[nH]c(=O)[nH]c3c2)c1 | -13% | -19%
CCN1C(=O)C(O)(c2c(C)[nH]c3ccccc23)c2ccccc21 (stereo unspecified) | 0% | u
COC(=O)Cn1c(N)[n+](Cc2ccccc2)c2ccccc21 | -12% | 7%
COc1ccc(NC(=O)c2nc(-n3nc(C)cc3C)ccc2Cl)cc1Cl | -8% | -23%
COc1ccc(/C=C2\NC(=S)N(CC3CCCO3)C2=O)c(OC)c1C (stereo unspecified) | -12% | u
CC1OC(Nc2ccc(N=Nc3ccccc3)cc2)C(O)C(O)C1O (stereo unspecified) | -5% | -11%

Compound activity from PubChem BioAssay.

An excerpt, and most or all hits are left out here.
